VACV Venus inh: inhibitors of vaccinia virus (Venus reporter); AID 720580; Vaccinia virus Venus reporter expression, fluorescence; Potency, µM (highest dose often 36.5 µM), without a hit: top-dose activity change, negative = inhibition, most hits filed as inhibitors; 0.46% of 330,000 active; active means well fitted inhibition curve with a large enough effect; inconclusive means small, poorly fitted or top-dose-only effect; inactive means no such curve, though single readings can be large or run the other way; tested in A549 cells; also: nearly all actives have a fitted effect of over 30% in size; inactives centre near -10
VACV mCherry inh: vaccinia inhibition (mCherry reporter). Potency, µM (doses to about 36.5 µM), inactives show at the highest dose activity change, negative = inhibition, most hits filed as inhibitors. AID 720579. 0.63% of 310,000 active. Vaccinia virus mCherry reporter infection, fluorescence; about a quarter of the inactives have no number; active = well fitted inhibition curve with a large enough effect; inconclusive = small, poorly fitted or top-dose-only effect; inactive = no such curve, though single readings can be large or run the other way; tested in A549 cells; also: nearly all actives have a fitted effect of over 35% in size; inactives centre near -10
Numbers without * were called inactive; i = inactive; ? = inconclusive; . = no result given; & = joins results of further samples; [ ] = remark or other dose. % is scaled to controls: 0 for no effect and ±100 for the full control effect; potency is read from the fitted curve at half-maximal effect.

SMILES | VACV Venus inh | VACV mCherry inh
Cc1c(C)c2c(OCC(=O)N[C@@H](C(=O)O)c3ccccc3)cc3c(c2oc1=O)CCC(C)(C)O3 | -6% | -12%
Cc1cccc(N=C2SC(C)CN2C(=O)CN2C(=O)NC3(CCCC3)C2=O)c1 (configuration not stated) | ? | -22%
Nc1nc(N2C(=O)C3CC=CCC3C2=O)nn1-c1ccccc1 (configuration not stated) | -13% | i
Cc1ccc2c(/C=C/c3c[nH]c4ccccc34)ccnc2c1C | 18% | -15%
COc1cc(OC)c2c(-c3ccccc3)cc(=O)oc2c1C(CCN1CCCC(C)C1)c1ccc(N(C)C)cc1 (configuration not stated) | ? | -28%
CCn1c2c(c(=O)n3ncc(C(=O)Nc4ccc(Cl)cc4C)c13)CN(Cc1ccc(OC)cc1)CC2 | -18% | -16%
Cc1ccc(NC(=O)C(=O)NCCCN2CCCC2=O)c(C)c1 | -5% | i
O=[N+]([O-])c1cccc(C([O-])=C(C(=S)Nc2cccc3ccccc23)[n+]2ccccc2)c1 | -19% | ?
Nc1ccc2nc(N)sc2c1 | -2% | -24%
COc1cc(OC)cc(C(=O)NCC(C)NC(=O)c2cc(OC)cc(OC)c2)c1 (configuration not stated) | -5% | i
CC(C)(C)NC(=O)c1cccc(NC(=O)c2ccco2)c1 | -5% | .
COc1ccc(CNC(=O)c2c(-c3c(F)cccc3Cl)noc2C)cc1 | -15% | i
COc1ccc(NC(=O)CCS(=O)(=O)c2ccc(Br)s2)cc1 | -7% | i
COc1ccc(N(CC(=O)NCc2ccc(C)cc2)S(=O)(=O)c2ccccc2[N+](=O)[O-])c(OC)c1 | -16% | ?
Cc1ccccc1-n1c(C)nnc1SCC(=O)NC1CCCc2ccccc21 (configuration not stated) | -15% | -29%
CC(C)NC(=O)C(Cc1ccccc1)N1C(=O)c2ccccc2C1=O (configuration not stated) | 1% | -13%
O=C(COC(=O)c1cnccn1)c1ccc2ccccc2c1 | -3% | .
Cc1nc(SCC(=O)N2c3ccccc3NC(=O)CC2C)c2c(C)c(C)sc2n1 (configuration not stated) | -20% | -12%
COC(=O)[C@]12CCCCC=C1N(Cc1ccc(Cl)cc1Cl)C(=O)[C@H](CC(=O)NCc1ccccc1)C2 | -1% | i
C/C(=N/NC(=O)c1ccoc1C)c1ccc(NC(=O)c2ccncc2)cc1 | -8% | i
O=C(COc1ccc2ccc(=O)oc2c1)N1CC[C@@]2(O)CCCC[C@H]2C1 | -1% | -6%
Cn1c(=O)c2cc(S(=O)(=O)NC(Cc3ccccc3)C(=O)NCc3ccco3)ccc2n(C)c1=O (configuration not stated) | -4% | i
CCCc1[nH]nc2c1C(c1ccc(OC)c(CSC3=NCCS3)c1)C(C#N)=C(N)O2 (configuration not stated) | -18% | i
Cc1ccccc1C(=O)NNC(=O)C(C)N1C(=O)c2ccccc2C1=O (configuration not stated) | -10% | -13%
Cc1ccccc1C(=O)c1cccn1CC(=O)NCc1cccc(Cl)c1 | -12% | -6%

Single records, from the list above. Order of values: VACV Venus inh | VACV mCherry inh
Cc1ccccc1C(=O)NNC(=O)C(C)N1C(=O)c2ccccc2C1=O (configuration not stated) reads -10% | -13%
CC(C)(C)NC(=O)c1cccc(NC(=O)c2ccco2)c1 reads -5% | .

Additional structures follow.
SMILES | VACV Venus inh | VACV mCherry inh
COc1ccc(-c2cc(C(F)F)n3ncc(C(=O)N4CCc5ccccc5C4)c3n2)cc1 | ? | -21%
CCOc1ccc(S(=O)(=O)Nc2ccc3c(c2)OCO3)c2cccnc12 | -16% | -1%
CCOC(=O)c1ccc(NC(=O)N2CC3CCCN3c3ccccc32)cc1 (configuration not stated) | -6% | -10%
COc1ccc(N2CCN(c3nc4ccc(C(=O)c5ccccc5)cc4n4cnnc34)CC2)cc1 | -7% | -10%
O=C(C1=C(O)C(=O)N(Cc2ccccc2)C1c1ccncc1)c1ccco1 (configuration not stated) | -8% | -10%
c1ccc(C2=Nn3c(nnc3-c3cccs3)SC2)cc1 | 5% | 19%
CCn1c(O)c(C=NCc2ccccc2)c(=O)[nH]c1=S | -15% | i
CC1CCCC=CC2CC(OC(=O)CN(C)C)CC2C(O)C=CC(=O)O1 (configuration not stated) | ? | ?
CCCCCn1c(=O)c(C(=O)Nc2ccccc2C)c(O)c2ccccc21 | -10% | i
CC(C)CCN(C)C1CCN(C(=O)Nc2c(F)cccc2F)CC1 | -10% | ?
COc1ccc(-c2cc(C(F)(F)F)nc(SCC(=O)N(C)Cc3cnn(C)c3C)n2)cc1OC | -11% | -8%
COc1cc(-c2c(-c3cccc(C)c3)oc3ccccc23)cc(OC)c1OC | 0% | i
Cc1nc2ccc(C(=O)O)cc2nc1C | -7% | i
CN(C)S(=O)(=O)c1cccc(NC(=O)CSc2nc3ccccc3n2-c2ccccc2)c1 | ? | ?
O=C1NC[C@@H](CCCCN2C[C@H](Cc3ccc(O)cc3)N(CCc3ccc(O)cc3)C(=O)C2=O)N(Cc2ccccc2)C1=O | -3% | 4%
CCCCCn1c(NC2CCCCC2)nc2c1c(=O)[nH]c(=O)n2C | -25% | ?
CCOC(=O)C1CCC(CN(Cc2c(Cl)cccc2Cl)S(=O)(=O)c2ccc(F)cc2)CC1 (configuration not stated) | -7% | 3%
COC(=O)c1ccc(C2/C(=C(/O)c3ccc(OC)cc3)C(=O)C(=O)N2c2cc(C)on2)cc1 (configuration not stated) | 3% | i
CC(C)(C)c1cc(S(=O)(=O)CCc2ccncc2)cc(C(C)(C)C)c1F | -7% | i
O=C(Cn1cnc2c(nc3n2CCCCC3)c1=O)Nc1ccc(F)cc1 | 2% | 1%
Cc1cnc(NC(=O)Cc2ccc(C)c(C)c2)s1 | 11% | -5%
CCN(CC)c1nc2cc(C)ccc2cc1/C=C(\C#N)C(N)=O | 37%[activator] | i
NC(=O)[C@H](Cc1cc2ccccc2s1)NC(=O)[C@@H]1CC2(CC(c3cccc(NC(=O)[C@@H]4CCC(=O)N4)c3)=NO2)CN1C(=O)/C=C/Sc1ccccc1 (some centres not stated) | -2% | -6%
O=C(CSc1nnc(CNC(=O)c2ccco2)o1)c1ccccc1 | -10% | -13%
O=C(COc1ccc([N+](=O)[O-])cc1)NCCC1=CCCCC1 | -6% | -10%

Quoted from the results shown (2 entries):
SMILES | VACV Venus inh | VACV mCherry inh
COc1ccc(-c2cc(C(F)F)n3ncc(C(=O)N4CCc5ccccc5C4)c3n2)cc1 | ? | -21%
CCOc1ccc(S(=O)(=O)Nc2ccc3c(c2)OCO3)c2cccnc12 | -16% | -1%

Later entries
SMILES | VACV Venus inh | VACV mCherry inh
CCCS(=O)(=O)N1CCN(S(=O)(=O)c2ccccc2[N+](=O)[O-])CC1 | -7% | i
CC(N)C12CC3CC(CC(O)(C3)C1)C2 (configuration not stated) | -1% | -13%
O=C(NCc1nnnn1-c1ccc(F)cc1)c1ccc([N+](=O)[O-])o1 | -30% | ?
Cc1ccccc1Nc1ccc(S(=O)(=O)N2CCOCC2)cc1[N+](=O)[O-] | -13% | -22%
Clc1ccc(-c2cccc3nccn23)cc1 | -2% | 22%
COc1ccc(CNC(=O)/C=C/c2ccc3[nH]cc(CCN(C)C)c3c2)cc1 | -11%&-6% | -25%&-19%
Fc1cccc(NC(=S)Nc2cccc3ccccc23)c1 | -4% | ?
COc1ccc(-c2nc(CSCC(=O)NCCCN3CCCC3=O)c(C)o2)cc1 | -11% | -21%
COc1ccc(S(=O)(=O)N(C)C[C@H]2OCCCC[C@H](C)Oc3ccc(NC(=O)Nc4ccc(F)cc4)cc3C(=O)N([C@H](C)CO)C[C@H]2C)cc1 | -19% | -27%
CC1(CCCc2ccc(N(CCCl)CCCl)cc2)NC(=O)NC1=O (configuration not stated) | -28% | -27%
Cc1c(NS(=O)(=O)c2cc(C(=O)NCc3ccco3)cc(Cl)c2Cl)c(=O)n(-c2ccccc2)n1C | -5% | -14%
O=C1c2ccccc2C(=O)N1c1nc(-c2cccs2)cs1 | -19% | .
O=C(CCSc1ccccc1)Nc1ccc(S(=O)(=O)N2CCOCC2)cc1 | -16% | -4%
N/C(=N\OC(=O)N1c2ccccc2Sc2ccccc21)c1ccc(Br)cc1 | -11% | -21%
N#Cc1ccc(OCC(=O)Nc2nc(-c3ccccn3)cs2)cc1 | ? | ?
NC(=O)COC(=O)/C=C/c1cccc(Br)c1 | 0% | 6%
O=C1N(Cc2cccc(Cl)c2)C[C@@H]2C[C@@H](c3cccn3-c3cccnc3)N3CCC[C@@]123 | -11% | -13%
COc1ccccc1-n1c(C)c2c(OC)cccc(=O)c2c1C | 9% | 10%
Cc1ccc(CNC(=O)CSc2ccc(-c3ccccn3)nn2)cc1 | ? | 7.1µM*
CCn1nc(C)c(CN2CCC(n3nccc3NC(=O)CCCc3ccccc3)CC2)c1C | -20% | -4%
O=C(O)c1ccccc1C=NN=C1c2ccccc2-c2ccccc21 | -9% | -28%
CCOc1cc(C(=O)NC)cc(Br)c1OCc1ccccc1 | -11% | -8%
CCCCC(CC)C(=O)Nc1cc(C(=O)NCc2ccc(C)cc2)ccc1N1CCC2(CC1)CC(c1ccccc1)=NO2 (configuration not stated) | -10% | i
O=C(NCCCn1ccnc1)Nc1ccc(Cl)cc1Cl | -4% | -9%
COc1ccc(NC(=O)c2cc(S(=O)(=O)NCC3COc4ccccc4O3)ccc2F)cc1 (configuration not stated) | -24% | -28%

4 structures out of the list, ordered by number of heavy atoms, rising.
SMILES | VACV Venus inh | VACV mCherry inh
Clc1ccc(-c2cccc3nccn23)cc1 | -2% | 22%
CCCS(=O)(=O)N1CCN(S(=O)(=O)c2ccccc2[N+](=O)[O-])CC1 | -7% | i
O=C(CCSc1ccccc1)Nc1ccc(S(=O)(=O)N2CCOCC2)cc1 | -16% | -4%
COc1ccc(NC(=O)c2cc(S(=O)(=O)NCC3COc4ccccc4O3)ccc2F)cc1 (configuration not stated) | -24% | -28%

The results go on.
SMILES | VACV Venus inh | VACV mCherry inh
O=C(CSc1nnc(-c2ccccc2)n1-c1ccc(Cl)cc1)NNC(=S)Nc1ccccc1 | -12% | -16%
O=C1NC(=O)C(CCc2ccncc2)(Cc2cccc(Cl)c2Cl)C(=O)N1c1ccc(Br)cc1 (configuration not stated) | ? | -29%
Cc1ccc(NC(=O)Cn2c(-c3nonc3N)nc3ccccc32)cc1C | -6% | -10%
CCN(CC)CCOc1ccccc1C(C)=O | -8% | i
Cc1cccc(N2C(=O)/C(=C\c3ccc(OC(F)F)cc3)c3ccccc3C2=O)c1 | -22% | -8%
O=C(C[n+]1ccc(/C=N/O)cc1)N1CCCCC1 | -9% | i
O=C(Nc1ccc(N2CCCCC2)c(S(=O)(=O)Nc2ccccc2Cl)c1)c1cccnc1 | -7% | -1%
Cc1ccc(-c2cc(NC(=O)COc3c(C)cc(C)cc3C)on2)cc1 | -12% | -13%
Clc1ccc(CCNc2nc3cc(Cl)c(Cl)cc3n3cnnc23)cc1 | -5% | -2%
CCN(CC)c1ccc(C(=O)NC(=S)Nc2cc(S(=O)(=O)N3CCOCC3)ccc2-n2cncn2)cc1 | -1% | -4%
CCOc1ccc(C(CC(=O)O)NC(=O)CCCOc2ccc(Cl)cc2C)cc1 (configuration not stated) | -2% | -3%
CCSc1ncc(CO)c(N)n1 | -18% | i
O=C(NCC(=O)N(c1ccccc1F)C(C(=O)NC1CCCC1)c1ccco1)c1ccco1 (configuration not stated) | -15% | -15%
O=C(OCC(=O)N1CCCc2ccccc21)c1ccccc1[N+](=O)[O-] | -6% | -23%
Cc1ccc(OCC2Cn3c(nc4c3c(=O)[nH]c(=O)n4C)O2)cc1C (configuration not stated) | -21% | i
Fc1ccc(-c2nc3c(Cl)cc(C(F)(F)F)cn3c2Cc2ccsc2)cc1 | -2% | i
Cc1nn(-c2ccc(F)cc2)c(-n2cccc2)c1C(=O)NCCc1ccc(Cl)cc1 | ? | ?
CCCCC(=O)Nc1ccccc1N1CCOCC1 | 1% | ?
CCn1c(=O)c2cc(C(=O)Nc3cc(F)ccc3F)sc2c2ccccc21 | ? | ?
CC(=O)Nc1ccc(NC(=O)c2cccc3ccccc23)cc1 | -14% | -14%
COCCOc1ccc(C(F)(F)F)cc1NC(=O)Cc1ccc(S(=O)(=O)N2CCOCC2)s1 | -23% | -1%
Cn1nnnc1SCC(=O)Nc1ccccc1N1CCCCC1 | -19% | -2%
Cc1c(S(=O)(=O)Nc2cccc(Cl)c2)c(=O)n(C)c(=O)n1C | 5% | -8%
O=C1NC[C@@H](Cc2cccc3ccccc23)N(CCC23CC4CC(CC(C4)C2)C3)C1=O | -14% | -1%
CSc1nnc2n(-c3ccccc3)c(=O)c3c4c(sc3n12)CCC4 | -24% | .
O=C(NC(=O)c1ccccc1)Nc1ccc(-n2nc(C(F)(F)F)cc2C(F)(F)F)cc1 | -10% | 1%
Cc1cccc(CS(=O)(=O)Cc2ccc(C(=O)NCC3CCCO3)o2)c1 (configuration not stated) | -7% | i
CC(C)CNC(=O)c1cccc(NC(=O)Cc2ccc(Cl)cc2)c1 | -11% | -6%

Random excerpt: seven records from the list, in no set order.
SMILES | VACV Venus inh | VACV mCherry inh
O=C(OCC(=O)N1CCCc2ccccc21)c1ccccc1[N+](=O)[O-] | -6% | -23%
CC(=O)Nc1ccc(NC(=O)c2cccc3ccccc23)cc1 | -14% | -14%
Cc1ccc(-c2cc(NC(=O)COc3c(C)cc(C)cc3C)on2)cc1 | -12% | -13%
O=C1NC(=O)C(CCc2ccncc2)(Cc2cccc(Cl)c2Cl)C(=O)N1c1ccc(Br)cc1 (configuration not stated) | ? | -29%
O=C1NC[C@@H](Cc2cccc3ccccc23)N(CCC23CC4CC(CC(C4)C2)C3)C1=O | -14% | -1%
CCCCC(=O)Nc1ccccc1N1CCOCC1 | 1% | ?
CCSc1ncc(CO)c(N)n1 | -18% | i

High-throughput results deposited in PubChem BioAssay by National Center for Advancing Translational Sciences (NCATS).
